Screening results: PubChem, National Center for Advancing Translational Sciences (NCATS)
ClpP mod = qHTS Assay for Activators of ClpP; ATP-dependent Clp protease proteolytic subunit (Bacillus subtilis (strain 168)), P80244; purified B. subtilis ClpP, FRET peptide cleavage, 20 min; Potency, µM (highest dose often 57.5 µM), inactives show at the highest dose activity change, negative = active; 1.9% of 340,000 active; AID 651965, 2013; active = well fitted falling curve with a large enough effect; inconclusive = small, poorly fitted or top-dose-only effect; inactive = no such curve, though single readings can be large or run the other way; also: potency is read from the fitted curve at half-maximal effect; the source files actives as falling curves though it sought activators and does not explain the sign; nearly all actives have a fitted effect of over 65% in size; many hits overshoot -100%
Target sequence (P80244 whole entry, looked up): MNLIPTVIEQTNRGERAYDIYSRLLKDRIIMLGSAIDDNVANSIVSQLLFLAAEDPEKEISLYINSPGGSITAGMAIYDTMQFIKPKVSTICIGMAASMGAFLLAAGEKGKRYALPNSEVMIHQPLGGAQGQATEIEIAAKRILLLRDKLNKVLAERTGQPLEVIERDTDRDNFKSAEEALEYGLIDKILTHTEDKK
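Purified B. subtilis ClpP, 10 microg/mL final in Tris/HCl pH8 with KCl, BSA, glycerol and Tween-20, cleaved an Abz/nitrotyrosine-quenched decapeptide. Fluorescence (ex 320, em 430) was read at 0 and 20 min at room temperature. Delta was normalized to 5.8 microM ADEP and DMSO/no-enzyme controls.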
TRPV1 potentiator = potentiators of human vanilloid receptor 1 (TRPV1) | potentiation, % at 8.33 µM | 0.02% of 320,000 active | TRPV1-expressing cells, Fluo-8 calcium influx, capsaicin EC20 potentiation; host cell line not named in the record; control for the full effect not named in the record | Q8NER1; active means potentiation above 80%; inconclusive means 30% to 80%; inactive means below 30%; also: 0% is about no effect
Target sequence (Q8NER1 whole entry, looked up): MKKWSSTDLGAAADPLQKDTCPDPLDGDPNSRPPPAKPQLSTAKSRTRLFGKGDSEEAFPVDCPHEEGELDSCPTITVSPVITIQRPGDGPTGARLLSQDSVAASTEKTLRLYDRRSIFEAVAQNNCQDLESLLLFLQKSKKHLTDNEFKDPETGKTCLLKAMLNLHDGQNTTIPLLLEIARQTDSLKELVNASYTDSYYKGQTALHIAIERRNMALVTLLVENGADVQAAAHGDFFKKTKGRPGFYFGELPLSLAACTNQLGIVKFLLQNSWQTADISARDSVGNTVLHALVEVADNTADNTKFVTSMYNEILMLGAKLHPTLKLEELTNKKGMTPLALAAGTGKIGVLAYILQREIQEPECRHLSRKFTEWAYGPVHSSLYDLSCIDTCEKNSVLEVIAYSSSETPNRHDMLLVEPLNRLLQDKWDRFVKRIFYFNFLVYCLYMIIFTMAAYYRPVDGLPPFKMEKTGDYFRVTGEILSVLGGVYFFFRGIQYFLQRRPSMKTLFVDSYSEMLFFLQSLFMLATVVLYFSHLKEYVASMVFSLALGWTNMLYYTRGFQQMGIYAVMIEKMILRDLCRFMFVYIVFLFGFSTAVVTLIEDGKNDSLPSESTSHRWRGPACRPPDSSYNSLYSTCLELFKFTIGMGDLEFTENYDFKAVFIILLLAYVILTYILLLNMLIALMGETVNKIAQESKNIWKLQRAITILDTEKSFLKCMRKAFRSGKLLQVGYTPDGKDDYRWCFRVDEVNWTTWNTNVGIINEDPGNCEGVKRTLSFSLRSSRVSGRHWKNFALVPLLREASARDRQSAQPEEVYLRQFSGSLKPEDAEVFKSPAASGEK
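TRPV1-expressing cells were cultured overnight at 35.5C and loaded with Fluo-8 calcium dye for 40 to 90 min at room temperature. After a 10 s baseline, compound was added and calcium influx was read kinetically for 3 min (ex 480/em 520 nm).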
Menin-MLL FL inh = menin-MLL binding inhibition, fluorescein peptide; Fluorescence polarization, fluorescein-MLL peptide displacement from menin; FP activity change, % at 61.4 µM; 290,000 tested, under 10 active; AID 1766; inconclusive = falling polarisation curve, or a change in total fluorescence; inactive = total fluorescence flat and polarisation flat or rising; no compound was filed as active; the % refers to the polarisation; negative = inhibition;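 also: % of control where 0% means no effect; inhibitors lower the polarisation; unlabelled MLL peptide was the positive control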
gsp antag = gsp mutant antagonism; 0.4% of 340,000 active; Potency, µM (highest dose often 76.9 µM), inactives show at the highest dose activity change, negative = inhibition, usual class: inhibitors; AID 624288; gsp-mutant cells, cAMP HTRF, 30 min; control for the full effect not named in the record; active = falling curve of any shape with a large fitted effect; inconclusive = falling curve, mostly with a smaller effect; inactive = flat or rising curve; cell line not stated here;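 also: intracellular cAMP measured with PDE inhibitor Ro 20-1724 present during compound exposure; potency is read from the fitted curve at half-maximal effect; % is scaled to controls: 0 for no effect and ±100 for the full control effect; nearly all actives have a fitted effect of over 65% in size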
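Cells in G418 medium, seeded 16-24 h, 37C; buffer exchange to DPBS + 1 mM CaCl2, 0.5 mM MgCl2, 0.05% BSA; cpds in DMSO + […] (300 uM stock), 30 min 37C; HTRF cAMP detection.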
Sfp PPTase inh = inhibitors of Bacillus subtilis Sfp phosphopantetheinyl transferase | Q9F4F7 | Biochemical Sfp PPTase activity, qHTS | Potency, µM, for inactives: max response, negative = inhibition, hits mostly inhibitors | 3.5% of 310,000 active; active = well fitted inhibition curve with a large enough effect; inconclusive = small, poorly fitted or top-dose-only effect, or another doubt; inactive = no such curve, though single readings can be large or run the other way;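 also: the enzyme is Sfp with the accession as filed and its product quenches rhodamine fluorescence; potency is read from the fitted curve at half-maximal effect; 0% = enzyme reaction without inhibitor and -100% = no enzyme wells; top concentration of the series not given in the record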
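Step 1, compound plus 15 nM Sfp-PPTase, 15 min, room temperature. Step 2, add rhodamine-CoA (5 uM) and BHQ-2-YbbR (12.5 uM). Step 3, read 525/598 nm fluorescence at 0 and 30 min.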
TRPML1 blocker = inhibitors of human TRPML1 channel. activity change, negative = inhibition, % (test concentration not listed). 0.02% of 390,000 active. TRPML1-inducible cells, Ca2+ dye fluorescence, FDSS; active compounds read low; inhibition of EC80 agonist-evoked calcium signal; in the data active means activity change below about -50%; inconclusive means about -30% to -50%; inactive means above about -30%;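 also: stimulus is agonist 54-4 at its EC80 concentration; % is scaled to controls: 0 for no effect and ±100 for the full control effect; compound concentration not given in the record; the text of the record puts the active cut at -80%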
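Tet-induced TRPML1-DL cells loaded with Ca8 no-wash calcium dye were read kinetically on FDSS. Compound addition was followed by EC80 agonist 54-4 (4 uM final); inhibition was read over 110 s.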
gsp agonist = agonists of gsp mutant (McCune-Albright syndrome); Potency, µM (top dose mostly 76.9 µM), inactives show at the highest dose activation (cAMP increase), usual class: activators; 0.13% of 340,000 active; gsp mutant cells, cAMP HTRF, 30 min; control for the full effect not named in the record; active = well fitted activation curve with a large enough effect; inconclusive = small, poorly fitted or top-dose-only effect, or another doubt; inactive = no such curve, though single readings can be large or run the other way; cell line not stated here;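 also: phosphodiesterase inhibitor Ro 20-1724 added with compounds to block cAMP breakdown; potency is read from the fitted curve at half-maximal effect; nearly all actives have a fitted effect of over 60% in size; about a fifth of the inactives were tested at one dose only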
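Cells stably selected in G418 were plated at 2000/well, grown 16-24 hr, then given compounds in DMSO with the PDE inhibitor […] (300 uM solution added) for 30 min at 37C; cAMP was read by HTRF.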
* marks the source's active call; other numbers are inactive results; ? = inconclusive; nt = not tested or not shown; [ ] = another dose, or the depositor's remark.

#	SMILES	ClpP mod	TRPV1 potentiator	Menin-MLL FL inh	gsp antag
1	CC(=O)Nc1ccc(C)c([N+](=O)[O-])c1	nt	-1	-4.5	11%
2	Cc1c2cnn(CC(=O)NCCCN3CCCCC3)c(=O)c2c(C)n1Cc1ccccc1	-20%	13	0.4	12%
3	Clc1ccc(CSc2nnc(-c3ccc4c(c3)OCO4)o2)cc1	-0.7%	-10	-1.1	-5%
4	CCOC(=O)c1c(NC(=O)CSc2nnc(CNc3ccc(C)cc3C)o2)sc(C)c1C	-0.9%	19	-0.3	-4%
5	Cn1ccnc1SCc1cccc([N+](=O)[O-])c1	nt	18	-0.4	7%
6	CC(C)n1c(SCC(N)=O)nc2c1c(=O)[nH]c(=O)n2C	10%	-7	0.6	8%
7	Clc1ccc(Sc2cc(N3CCOCC3)nc(-c3ccccc3)n2)cc1	-18%	18	3.4	-6%
8	O=C(CSc1nnc2ccccn12)NC(=O)Cc1ccccc1	nt	10	0.0	7%
9	Cc1nccc(-c2ccc3c(c2)OCO3)n1	nt	6	-1.1	9%
10	FC(F)(F)c1cc(-c2ccco2)nc(NCc2cccnc2)n1	-3.3%	13	-1.8	7%
11	COc1ccc(S(N)(=O)=O)cc1-c1nnc2c3ccccc3c(C)nn12	-4.1%	12	-3.7	15%
12	O=C(NCc1cccc(F)c1)c1noc2c1CCCC2	0.3%	5	7.2	4%
13	CCN(CC)C(=O)CP(=O)(c1ccccc1)c1ccccc1	-3.4%	14	0.2	6%
14	CC(Cc1ccccc1)NC(=O)c1cc([N+](=O)[O-])ccc1Cl (stereo not given)	-0.9%	-9	-0.8	0%
15	Cn1c(C(C#N)C(=O)c2ccco2)nc2ccccc21 (stereo not given)	-23%	-10	-0.8	0%

#	Sfp PPTase inh	TRPML1 blocker	gsp agonist
1	17%	-6	0%
2	4%	-6	17%
3	50µM*	12	?
4	24%	-7	2%
5	9%	2	36%
6	?	15	-11%
7	-13%	-11	-11%
8	-5%	8	0%[15.4 µM]
9	19%	11	2%[15.4 µM]
10	-16%	10	25%[15.4 µM]
11	12%	nt	-1%
12	0%	-4	-27%
13	17%	12	16%
14	10%	-12	-23%
15	-8%	-21	3%

Following part.
#	SMILES	ClpP mod	TRPV1 potentiator	Menin-MLL FL inh	gsp antag
16	CCS(=O)(=O)N1CCC(C(=O)NCc2ccc(OC)cc2OC)CC1	-0.3%	?	0.4	-1%
17	CCCN(CC(=O)Nc1ccc(C(N)=O)cc1)CC(=O)Nc1ccccc1C	-0.3%	8	-4.1	0%
18	Clc1ccc(SCc2cn3ccsc3n2)cc1	4.2%	-19	4.0	1%
19	Cc1c(C(=O)N/N=C/c2cccnc2)sc(=S)n1C	1.9%	7	nt	6%
20	CC(C)NC(=O)CN1CCN(C(=O)c2ccc3oc(CCCc4ccccc4)nc3c2)CC1	-5.0%	-8	nt	1%
21	Cc1cc(O)ccc1Nc1nc(-c2sc(N)nc2C)cs1	1.4%	5	?	-37%
22	CCOC(=O)C1=CN(Cc2ccco2)S(=O)(=O)N(CC)C1c1ccc(F)c(Cl)c1 (stereo not given)	-0.4%	nt	nt	-14%
23	CN(C(=O)c1cc2sccc2n1C)C1CCCCC1	-0.1%	nt	0.7	-22%
24	O=[N+]([O-])c1cc([N+](=O)[O-])c(Oc2cc(Cl)ccc2Cl)cc1NC1CCCCCCC1	-2.6%	-5	-0.4	0%
25	O=C(NCCc1ccccc1)C1CCCN1C(=O)Nc1ccccc1 (stereo not given)	0.2%	?	-1.7	14%
26	O=C(CCc1nnc(CCC2CCCCC2)o1)NCc1ccon1	-1.0%	-7	-1.4	-11%
27	COc1ccccc1NNC(=O)c1cc(C(C)(C)C)nn1Cc1ccccc1	nt	nt	0.1	-12%
28	COc1cc(NC(=O)COC(=O)c2ccc3ccccc3n2)cc(OC)c1	-14%	-1	nt	4%
29	CC(CCc1ccccc1)NC(=O)CSc1ccccn1 (stereo not given)	1.8%	-3	-2.7	8%
30	CC(=O)Nc1ccc(S(=O)(=O)N2CCC(C(=O)O)(c3ccccc3)CC2)cc1	nt	0	-2.4	1%

#	Sfp PPTase inh	TRPML1 blocker	gsp agonist
16	8%	14	-3%
17	8%	16	4%
18	-4%	5	-44%[inhibitor]
19	-7%	4	-35%[inhibitor]
20	12%	-11	12%
21	-3%	15	-5%
22	nt	5	nt
23	-7%	-24	3%
24	-3%	6	4%
25	6%	nt	-3%
26	6%	8	-33%[inhibitor]
27	10%	0	43%
28	nt	2	15%
29	22%	-10	4%
30	26%	5	?

Sfp PPTase inh, hit marks shown above.
no.	SMILES	Menin-MLL FL inh	Sfp PPTase inh	TRPML1 blocker	gsp agonist
3	Clc1ccc(CSc2nnc(-c3ccc4c(c3)OCO4)o2)cc1	-1.1	50µM*	12	?

Next section:
#	SMILES	ClpP mod	TRPV1 potentiator	Menin-MLL FL inh	gsp antag
31	CC(=O)N1CCN(C(=O)Cn2c(=O)oc3ccccc32)CC1	-29%	14	3.6	7%
32	O=C(NCc1ccccc1C(F)(F)F)C1CCC(=O)N(C2CCCCCC2)C1 (stereo not given)	-0.2%	-10	nt	9%
33	COC(=O)c1cc(CNC(=O)c2ccccc2Cl)ccc1OC	nt	-5	3.4	-11%
34	CC(Oc1ccc(Br)cc1)C(=O)Nc1nc(-c2ccccn2)cs1 (stereo not given)	-0.4%	10	nt	-32%
35	Cc1nn(-c2ccccc2)c2sc(C(=O)n3cccn3)cc12	?	10	-0.5	-1%
36	COc1ccc(-c2nnc(SCC(=O)N3CCOCC3)o2)cc1	-2.5%	9	1.7	5%
37	COc1ccc(-c2c(-c3ccsc3)oc3ccc(N4CCOCC4)cc23)cc1	4.2%	nt	nt	-5%
38	CCc1c(O)cc(=O)n(-c2ccccc2)c1-c1ccccc1	-4.4%	2	0.4	-6%
39	CN(CC(=O)O)S(=O)(=O)c1cc(Cl)ccc1Cl	0.2%	-28	2.1	8%
40	Cc1nnc(SCC(=O)Nc2nc3ccccc3s2)n(N)c1=O	-2.0%	-1	-2.2	8%
41	c1ccc(-c2ccnc3nc(-n4cccc4)nn23)cc1	1.8µM*	-1	0.9	8%
42	Cn1c(=O)c2c(nc(SCC(=O)c3ccccc3F)n2C)n(C)c1=O	nt	4	-5.5	nt
43	Cc1ccn2c(-c3n[nH]c(=S)n3C)c(C)nc2c1	6.6%	8	0.1	1%
44	CCN(CC)CCCn1c2c(c(SCC(=O)N3CCCc4ccccc43)nc1=O)CCC2	1.4%	-15	nt	0%
45	COc1ccccc1CNC(=O)C(=O)NCC1OCCN1C(=O)c1ccc(Cl)cc1 (stereo not given)	nt	-16	1.6	-4%

#	Sfp PPTase inh	TRPML1 blocker	gsp agonist
31	11%	33	10%
32	7%	8	-53%
33	-19%	-9	9%[15.4 µM]
34	40µM*	14	7%[15.4 µM]
35	5%	0	-5%[15.4 µM]
36	15%	-8	0%
37	nt	-1	27%
38	-5%	-11	-26%[15.4 µM]
39	?	14	-34%
40	0%	-25	-3%
41	8%	-3	-10%
42	1%	nt	nt
43	?	27	1%
44	nt	8	-3%[15.4 µM]
45	16%	5	8%[15.4 µM]

3 compounds from above, arranged by their value in gsp agonist, descending:
nr | Compound | gsp agonist
36 | COc1ccc(-c2nnc(SCC(=O)N3CCOCC3)o2)cc1 | 0%
40 | Cc1nnc(SCC(=O)Nc2nc3ccccc3s2)n(N)c1=O | -3%
32 | O=C(NCc1ccccc1C(F)(F)F)C1CCC(=O)N(C2CCCCCC2)C1 (stereo not given) | -53%

Compound profiles, as listed above:
Cn1c(=O)c2c(nc(SCC(=O)c3ccccc3F)n2C)n(C)c1=O across the screens: ClpP mod = nt; TRPV1 potentiator = 4; Menin-MLL FL inh = -5.5; gsp antag = nt; Sfp PPTase inh = 1%; TRPML1 blocker = nt; gsp agonist = nt
Cc1nnc(SCC(=O)Nc2nc3ccccc3s2)n(N)c1=O across the screens: ClpP mod = -2.0%; TRPV1 potentiator = -1; Menin-MLL FL inh = -2.2; gsp antag = 8%; Sfp PPTase inh = 0%; TRPML1 blocker = -25; gsp agonist = -3%

The list goes on.
#	SMILES	ClpP mod	TRPV1 potentiator	Menin-MLL FL inh	gsp antag
46	c1ccc(CNc2nc(NCc3ccco3)nc(N3CCOCC3)n2)cc1	1.2%	-6	-1.2	-4%
47	CC1CCN(S(=O)(=O)c2cc([N+](=O)[O-])ccc2Cl)CC1	0.7%	?	2.9	-10%
48	COC(=O)c1c(NC(=O)CN2CCCc3ccccc32)sc(C)c1C	-13%	6	10	?
49	COc1cc(NC(=O)C(=O)N2CCN(C)CC2)c(OC)cc1Cl	3.7%	-2	-1.6	-8%
50	O=C(Cn1cnc(S(=O)(=O)N2CCOCC2)c1)Nc1ccc(OC(F)(F)F)cc1	1.3%	-12	nt	24%
51	CN(C)S(=O)(=O)N1CCC(Oc2ccc(C(=O)N3C[C@H]4CC[C@H]3C4)cc2)CC1	-1.7%	-10	nt	-33%
52	COCCSc1nnc(-c2cccc(C#N)c2)n1C	-4.2%	1	1.4	2%
53	C/C(N)=C(\C#N)C(=O)NCc1ccccn1	-1.6%	-7	5.1	9%
54	CCOc1ccc(S(=O)(=O)NCc2ccco2)cc1	1.0%	28	-1.4	-5%

#	Sfp PPTase inh	TRPML1 blocker	gsp agonist
46	1%	-4	28%
47	8%	20	?
48	-5%	-1	16%
49	10%	3	-20%[15.4 µM]
50	18%	14	?
51	11%	-1	-5%
52	5%	0	6%
53	3%	1	-37%
54	1%	-5	0%
